From PubChem
Ab BasE inh = blocks the Acinetobacter baumannii siderophore enzyme BasE. purified BasE, fluorescence polarization binding displacement. inhibition, % (test concentration not listed). actives 0.1% (n = 84,000). AID 485350;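 active means both replicates above 25% with normal brightness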;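 further: 0% = negative plate control signal and 100% = positive plate control signal; stock transfer was 100 nL into about 30 µL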
KSHV LANA nucl = LANA-nucleosome interaction inhibition. z-score (test concentration not listed). FITC-LANA1-23 / chicken nucleosome fluorescence polarization; stronger effect = lower value. actives 0.3% (n = 51,000). AID 720717;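 active means both repeat wells score below -2 in polarization z-score versus plate sample wells, excluding overly bright wells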;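 further: 100 nL library stock added to about 30 µL; numbers are from one replicate; some results filed as inactive read as strong as hits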
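Assay system: FITC-LANA peptide and chicken nucleosomes; input: 240 nM purified chicken nucleosomes (480 nM peptide binding sites), final; also added: 50 nM FITC-LANA1-23 probe; medium: TEN-BT buffer, pH 7.5; doses: pin-transferred compound, 100 nL; times: 10–45 min, room temperature; technique: fluorescence polarization; replication: duplicates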
* hit, by the source's call; & = joins results of further samples.

The first 2 entries, to show the layout:
COC(=O)/C=C1/NCC(OC(=O)c2ccc(C(C)(C)C)cc2)CNC1=O (stereo not given) was read as Ab BasE inh 0.5.
Screening CCOc1cc(/C=N/O)cc(I)c1O returned Ab BasE inh 5.3 and KSHV LANA nucl -0.282.

The list itself, from the first entry:
COC(=O)/C=C1/NCC(OC(=O)c2ccc(C(C)(C)C)cc2)CNC1=O (stereo not given) was read as Ab BasE inh 0.5.
Screening CCOc1cc(/C=N/O)cc(I)c1O returned Ab BasE inh 5.3 and KSHV LANA nucl -0.282.
For O=C(CN1C(=O)c2ccc(Br)cc2C1=O)NCC1CCCO1 (stereo not given) the results were Ab BasE inh 1.0 and KSHV LANA nucl 2.53.
CN(Cc1nc(-c2ccccc2)no1)C(=O)C(C)(C)C was read as Ab BasE inh -3.0 and KSHV LANA nucl 0.017.
O=C(COC(=O)[C@@H]1CCCN1S(=O)(=O)c1ccc(Cl)cc1)Nc1ccccc1 was read as Ab BasE inh 0.8.
`O=C1c2ccccc2C(=O)N1CN1CCOCC1` gave Ab BasE inh 2.3 and KSHV LANA nucl 0.327.
Screening O=C1c2ccccc2C(=O)N1CCC1=CCCCC1 returned Ab BasE inh 2.9 and KSHV LANA nucl 1.03.
For Cc1ccc2nsnc2c1NC(=O)c1ccccc1 the results were Ab BasE inh -1.9 and KSHV LANA nucl 0.795.
`Cc1ccc(S(=O)(=O)N(CC(=O)N2CCC(C(N)=O)CC2)c2ccccc2F)cc1` gave Ab BasE inh 4.0 and KSHV LANA nucl 0.677.
`O=C(Nc1cc(C(F)(F)F)ccc1N1CCCC1)Nc1cccc2ccccc12` gave KSHV LANA nucl 0.398.
Screening Cc1ccc(-n2cnc3cc(NC(=O)c4ccccc4)ccc32)cc1 returned Ab BasE inh -0.6.
NC(=O)c1cccc(-c2nn[nH]n2)c1 was read as Ab BasE inh 2.4.
For O=C(Nc1ccc(N2CCOCC2)c2nonc12)c1cc(-c2cccnc2)nc2ccc(Cl)cc12 the results were Ab BasE inh -0.5 and KSHV LANA nucl 0.493.
`CC(C)CCNC(=O)Cn1cccc1C(=O)c1ccccc1` gave Ab BasE inh 2.4 and KSHV LANA nucl 0.0355.
CC1CCN(Cn2c(=O)n(CN3CCC(C)CC3)c3ccccc32)CC1 was read as Ab BasE inh -0.4.
Screening Cc1ccc2nc(NC(=O)c3ccc4c(c3)SC3=NS(=O)(=O)CCN34)sc2c1 returned Ab BasE inh 1.2.
Screening CCCC(CCC)C(=O)O returned Ab BasE inh -2.5 and KSHV LANA nucl -0.305&-0.038&-0.345.
CN(C)c1cccc2c(/C=N/O)ccc(N(C)C)c12 was read as Ab BasE inh -1.9.
Screening Cc1cc(NC(=O)COC(=O)Cn2[nH]c(=O)c3ccccc3c2=O)no1 returned Ab BasE inh 1.5.
For N=c1sc(SCc2ccccc2)nn1CC(=O)c1ccc2c(c1)OCCO2 the results were Ab BasE inh 1.1.
Screening CC(C)(C)NCc1ccc(-c2ccccc2)o1 returned Ab BasE inh -2.3 and KSHV LANA nucl 0.139.
COc1ccc(Nc2ncc(C)s2)cc1 was read as Ab BasE inh -4.4.
C=CCOc1ccc2c(=O)c(Oc3cccc(C)c3)coc2c1 was read as Ab BasE inh 4.0.
Screening CCCCNS(=O)(=O)c1ccc2nc(SC(C)C(=O)N3CCCC3)[nH]c2c1 (stereo not given) returned Ab BasE inh -0.5.
O=C(CN1CCN(C(=O)N2CCCCC2)CC1)Nc1ccc(F)cc1 was read as Ab BasE inh 0.2 and KSHV LANA nucl 0.575.
`O=C(NCc1ccco1)C1CCN(c2nc3ccc(Br)cc3s2)CC1` gave Ab BasE inh 0.3 and KSHV LANA nucl -1.66.
`CC(C(=O)Nc1ccc(S(=O)(=O)N2CCCCC2)cc1)N(C)Cc1nc2ccccc2c(=O)[nH]1` (stereo not given) gave Ab BasE inh -1.4.
For CCN(N)C(=S)Nc1ccccc1 the results were Ab BasE inh 2.3.
Screening C=CCn1c(=S)sc2c(=O)n(Cc3ccc(C#N)cc3)cnc21 returned Ab BasE inh -1.1.
Screening CCS(=O)(=O)c1ccc(-c2cccc(NC(=O)c3ccc(Br)o3)c2)nn1 returned Ab BasE inh -0.8 and KSHV LANA nucl 0.519.

Eleven entries out of the list, arranged by SMILES length, lowest first:
Screening CCCC(CCC)C(=O)O returned Ab BasE inh -2.5 and KSHV LANA nucl -0.305&-0.038&-0.345.
For CCN(N)C(=S)Nc1ccccc1 the results were Ab BasE inh 2.3.
COc1ccc(Nc2ncc(C)s2)cc1 was read as Ab BasE inh -4.4.
Screening CC(C)(C)NCc1ccc(-c2ccccc2)o1 returned Ab BasE inh -2.3 and KSHV LANA nucl 0.139.
CN(C)c1cccc2c(/C=N/O)ccc(N(C)C)c12 was read as Ab BasE inh -1.9.
C=CCOc1ccc2c(=O)c(Oc3cccc(C)c3)coc2c1 was read as Ab BasE inh 4.0.
O=C(CN1CCN(C(=O)N2CCCCC2)CC1)Nc1ccc(F)cc1 was read as Ab BasE inh 0.2 and KSHV LANA nucl 0.575.
For N=c1sc(SCc2ccccc2)nn1CC(=O)c1ccc2c(c1)OCCO2 the results were Ab BasE inh 1.1.
Screening Cc1cc(NC(=O)COC(=O)Cn2[nH]c(=O)c3ccccc3c2=O)no1 returned Ab BasE inh 1.5.
Screening CCS(=O)(=O)c1ccc(-c2cccc(NC(=O)c3ccc(Br)o3)c2)nn1 returned Ab BasE inh -0.8 and KSHV LANA nucl 0.519.
Screening Cc1ccc2nc(NC(=O)c3ccc4c(c3)SC3=NS(=O)(=O)CCN34)sc2c1 returned Ab BasE inh 1.2.

Next part.
CCCCC(CC)n1[nH]c(=O)cc1N (stereo not given) was read as Ab BasE inh -1.4 and KSHV LANA nucl -0.0255.
CC1CCC(NC(=O)C2CCCN(C(=O)c3cc4sccc4n3C)C2)CC1 (stereo not given) was read as Ab BasE inh -1.2 and KSHV LANA nucl 0.93.
`CC(C)(C)n1ncc(O)c(Cl)c1=O` gave Ab BasE inh -1.0 and KSHV LANA nucl -0.755.
O=C(CSc1nc2ccccc2c(=O)n1-c1ccc(Cl)c(Cl)c1)N1CCOCC1 was read as Ab BasE inh 0.9.
For CCC(=O)Nc1ccc2c(c1)nc1n2CCN(CCOC)C1 the results were Ab BasE inh -0.2 and KSHV LANA nucl -1.03.
For CC12CCC(C(=O)O)(OC1=O)C2(C)C (stereo not given) the results were Ab BasE inh 1.5 and KSHV LANA nucl 0.35.
`CCN(CC)CCOc1ccc(Cl)cc1C` gave Ab BasE inh -1.7 and KSHV LANA nucl -0.423.
`CC1CCc2c(sc3ncnc(Oc4ccc(NC(=O)c5ccco5)cc4)c23)C1` (stereo not given) gave Ab BasE inh 1.4.
O=C(O)/C=C1\SC(=O)N(c2ccccc2)C1=O was read as Ab BasE inh -0.5 and KSHV LANA nucl -2.07.
Screening CN(C)Cn1c(O)c(N=NC(=O)Sc2nc3ccccc3s2)c2ccccc21 returned Ab BasE inh -0.2.
CC(C)CN1C(=O)c2ccc(-c3nc4ccccc4c(=O)o3)cc2C1=O was read as Ab BasE inh 0.4 and KSHV LANA nucl 0.41.
For CCOC(=O)N1c2ccccc2Sc2ccccc21 the results were Ab BasE inh -3.3 and KSHV LANA nucl 0.235.
Cc1ccc(SC2=C(N3CCOCC3)C(=O)N(c3cc(C)cc(C)c3)C2=O)cc1 was read as Ab BasE inh -4.2.
Screening COC(=O)c1sccc1NC(=O)CCCC(=O)O returned Ab BasE inh 0.4.
For COC(=O)c1ccc([C@@H]2Nc3c(C)cccc3[C@@H]3C=CC[C@@H]32)cc1 the results were Ab BasE inh -1.1.
`CN1/C(=C/c2cccc[n+]2C)C=Cc2ccccc21` gave Ab BasE inh 1.4.
Cc1nn(C)cc1S(=O)(=O)N1CCCc2ccccc21 was read as Ab BasE inh -1.4 and KSHV LANA nucl 0.131.
Screening S=c1nc[nH]c2c1cnn2-c1ccc(Cl)cc1 returned Ab BasE inh -0.3 and KSHV LANA nucl -1.03.
`COC(=O)c1cccc(N2C(=O)c3ccc(C(=O)OC)cc3C2=O)c1` gave Ab BasE inh 2.1.
`CC1=NNC(=O)CC1` gave Ab BasE inh 1.4 and KSHV LANA nucl -1.2.
For COC(=O)c1ccc(C(c2c(N)n(CC(C)C)c(=O)[nH]c2=O)N2CCOCC2)cc1 (stereo not given) the results were Ab BasE inh 1.4.
For CCn1c(CCNC(=O)Cc2c(F)cccc2Cl)nnc1SC the results were Ab BasE inh 1.8 and KSHV LANA nucl -1.69.
For COC(=O)c1sccc1Oc1ccc(C(F)(F)F)cc1NC(=O)Nc1ccc(Cl)cc1 the results were Ab BasE inh 2.4.
Cn1nc(C(=O)N2CCC(C(N)=O)CC2)c2ccccc2c1=O was read as Ab BasE inh 2.0.
For CN1CCN(c2ccc3c(ccc4c5ccccc5[nH]c34)n2)CC1 the results were Ab BasE inh -2.4 and KSHV LANA nucl -0.058.
`Cc1ccnc(NC(=O)Nc2ccccc2)c1` gave Ab BasE inh 1.8 and KSHV LANA nucl -0.564.
For Cc1ccc(-c2noc(CNC(=O)CN(C)S(=O)(=O)c3ccc(C)cc3)n2)cc1 the results were Ab BasE inh 2.0 and KSHV LANA nucl -0.862.
Screening C[C@@H](C(=O)N1CCSC1=NCc1ccccc1)N1C(=O)C2CC=CCC2C1=O (stereo not given in full) returned Ab BasE inh 1.5.
Screening CCCCCCCCCc1ccc(OCCOCCOCCOCCOCCOCCOCCOCCOCCO)cc1 returned KSHV LANA nucl 0.585.
For O=C(NC1CCCC1)C(c1ccc(N2CCOCC2)cc1)N(Cc1ccco1)C(=O)c1ccco1 (stereo not given) the results were Ab BasE inh 1.5 and KSHV LANA nucl -0.005.
CCN(CC)C(=O)CSc1nnc2c3ccccc3n(C)c2n1 was read as Ab BasE inh -0.1 and KSHV LANA nucl 0.685.
For Cc1ccc(S(=O)(=O)N2CCN(C(=O)COC(=O)C3=COCCO3)CC2)c(C)c1 the results were Ab BasE inh 2.1.
For C=CC1=C(C(=O)O)N2C(=O)[C@@H](NC(=O)/C(=N/OCC(=O)O)c3csc(N)n3)[C@H]2SC1 (stereo in doubt) the results were Ab BasE inh -2.1 and KSHV LANA nucl -0.148.
For Cn1c(C(O)c2ccccc2)n[nH]c1=S (stereo not given) the results were Ab BasE inh 2.0 and KSHV LANA nucl 1.12.
Screening Cc1ccc(C)c(S(=O)(=O)Nc2cc(Cl)c3oc(=O)sc3c2)c1 returned Ab BasE inh -1.2 and KSHV LANA nucl -0.2.
`c1ccc(-n2cnnc2SCc2nc3ccccc3s2)cc1` gave Ab BasE inh -1.6.
COc1ccc2c(OC)ccc3c2c1C=CC3=O was read as Ab BasE inh 27.4.
`OCCC12CC3CC(CC(C3)C1)C2` gave Ab BasE inh 2.9.
`Cc1ccccc1Nc1nc(CSc2nnc(CN3CCCC3=O)o2)cs1` gave Ab BasE inh -0.7.
`O=S(=O)(c1cccs1)N1CCN(c2cnccn2)CC1` gave Ab BasE inh 1.6.
`CSc1nc2ccccc2n1CC(=O)N1CCN(c2ccccc2)CC1` gave Ab BasE inh 1.9.
Clc1ccc(CSCc2cn3ccsc3n2)cc1 was read as Ab BasE inh 0.3.
For Cn1ccnc1SCC(=O)Nc1ccc(S(=O)(=O)Nc2ncccn2)cc1 the results were Ab BasE inh 1.7 and KSHV LANA nucl -0.185.
Screening Nc1c(S(=O)(=O)c2ccccc2)c2nc3ccccc3nc2n1/N=C/c1ccncc1 returned KSHV LANA nucl -0.169.
`CCOC(=O)Cc1csc(NC(=O)c2ccccc2)n1` gave Ab BasE inh 2.0.
CC(C)Cn1c2ccccc2c2ccccc21 was read as Ab BasE inh -0.9.
Screening COc1ccc(C(=O)COC(=O)CN2c3nc4ccccc4nc3C3C=CC=CC32)cc1 (stereo not given) returned Ab BasE inh 1.8.
Cc1ccc(CC(=O)N2CCCc3ccccc32)cc1 was read as Ab BasE inh -6.1 and KSHV LANA nucl 0.256.
`CCOC(=O)/C=c1\s/c(=C\c2cccs2)c(=O)n1CC(=O)N1CCCC1` gave Ab BasE inh 5.4.
For CC1CN(C(=O)C2=NN(c3ccccc3)C(=O)CC2)CC(C)O1 (stereo not given) the results were Ab BasE inh 2.0.
Screening CC(C)Sc1nnc(NC(=O)NC(C)(C)C)s1 returned Ab BasE inh 0.3 and KSHV LANA nucl -0.753.
`CCCC(=O)Oc1ccc2ccc(=O)oc2c1` gave Ab BasE inh 2.1 and KSHV LANA nucl -0.227.
Cc1cccc2c1NC(C)CC2C (stereo not given) was read as Ab BasE inh 2.5 and KSHV LANA nucl -0.914.
Screening O=C(COn1nnc2ccc(Cl)cc21)NC(=O)NC1CCCCC1 returned Ab BasE inh 1.5.
CCc1ccc2oc(-c3ccc(OC)cc3)cc(=NCC(=O)O)c2c1 was read as Ab BasE inh -0.3.
Screening CCCCNC(=O)Cn1c(=O)sc2ccccc21 returned Ab BasE inh 1.9 and KSHV LANA nucl -0.778.
CCn1nc(C)c(Br)c1C(=O)Sc1ccc(OC)cc1 was read as Ab BasE inh -5.0 and KSHV LANA nucl 1.46.
For O=C1CSC2=NC3=C(CCc4ccccc43)C(c3cccs3)N12 (stereo not given) the results were Ab BasE inh -1.6.
Screening COCCn1ccc2c(OCC(=O)c3ccccc3)cccc2c1=O returned Ab BasE inh -1.7 and KSHV LANA nucl -0.579.
`CC(NC(=O)Cc1c(F)cccc1Cl)C1CCCO1` (stereo not given) gave Ab BasE inh 4.0 and KSHV LANA nucl -0.647.
O=C1CCCN1CCCNc1ccc(Cl)nn1 was read as Ab BasE inh 2.3 and KSHV LANA nucl 0.663.
`O=C(c1cccc(N2C(=O)c3ccccc3C2=O)c1)N1CCOCC1` gave Ab BasE inh -2.2 and KSHV LANA nucl 0.983.
For CC(C)c1ccc(N2C=Nc3ccc(C(C)C)cc3C2)cc1 the results were Ab BasE inh 0.1.
Screening O=C(/C=C/c1ccco1)NCCCN1CCN(CCCNC(=O)/C=C/c2ccco2)CC1 returned Ab BasE inh 1.3 and KSHV LANA nucl 0.598.

An excerpt; count on the stated rates, not on these rows.
